Screening results (PubChem BioAssay)
nsP2pro inh: CHIKV nsP2 protease inhibition, primary qHTS. 31,000 tested, 1.1% active. FRET peptide cleavage, nsP2pro, fluorescence 1 h. Potency, µM (top dose mostly 24.9 µM), without a hit: top-dose activity change, negative = inhibition, usual class: inhibitors. Q8JUX6; active means well fitted inhibition curve with a large enough effect; inconclusive means small, poorly fitted or top-dose-only effect; inactive means no such curve, though single readings can be large or run the other way; further: nearly all actives have a fitted effect of over 60% in size; a reference inhibitor and vehicle were the controls
Target sequence (Q8JUX6 whole entry, looked up): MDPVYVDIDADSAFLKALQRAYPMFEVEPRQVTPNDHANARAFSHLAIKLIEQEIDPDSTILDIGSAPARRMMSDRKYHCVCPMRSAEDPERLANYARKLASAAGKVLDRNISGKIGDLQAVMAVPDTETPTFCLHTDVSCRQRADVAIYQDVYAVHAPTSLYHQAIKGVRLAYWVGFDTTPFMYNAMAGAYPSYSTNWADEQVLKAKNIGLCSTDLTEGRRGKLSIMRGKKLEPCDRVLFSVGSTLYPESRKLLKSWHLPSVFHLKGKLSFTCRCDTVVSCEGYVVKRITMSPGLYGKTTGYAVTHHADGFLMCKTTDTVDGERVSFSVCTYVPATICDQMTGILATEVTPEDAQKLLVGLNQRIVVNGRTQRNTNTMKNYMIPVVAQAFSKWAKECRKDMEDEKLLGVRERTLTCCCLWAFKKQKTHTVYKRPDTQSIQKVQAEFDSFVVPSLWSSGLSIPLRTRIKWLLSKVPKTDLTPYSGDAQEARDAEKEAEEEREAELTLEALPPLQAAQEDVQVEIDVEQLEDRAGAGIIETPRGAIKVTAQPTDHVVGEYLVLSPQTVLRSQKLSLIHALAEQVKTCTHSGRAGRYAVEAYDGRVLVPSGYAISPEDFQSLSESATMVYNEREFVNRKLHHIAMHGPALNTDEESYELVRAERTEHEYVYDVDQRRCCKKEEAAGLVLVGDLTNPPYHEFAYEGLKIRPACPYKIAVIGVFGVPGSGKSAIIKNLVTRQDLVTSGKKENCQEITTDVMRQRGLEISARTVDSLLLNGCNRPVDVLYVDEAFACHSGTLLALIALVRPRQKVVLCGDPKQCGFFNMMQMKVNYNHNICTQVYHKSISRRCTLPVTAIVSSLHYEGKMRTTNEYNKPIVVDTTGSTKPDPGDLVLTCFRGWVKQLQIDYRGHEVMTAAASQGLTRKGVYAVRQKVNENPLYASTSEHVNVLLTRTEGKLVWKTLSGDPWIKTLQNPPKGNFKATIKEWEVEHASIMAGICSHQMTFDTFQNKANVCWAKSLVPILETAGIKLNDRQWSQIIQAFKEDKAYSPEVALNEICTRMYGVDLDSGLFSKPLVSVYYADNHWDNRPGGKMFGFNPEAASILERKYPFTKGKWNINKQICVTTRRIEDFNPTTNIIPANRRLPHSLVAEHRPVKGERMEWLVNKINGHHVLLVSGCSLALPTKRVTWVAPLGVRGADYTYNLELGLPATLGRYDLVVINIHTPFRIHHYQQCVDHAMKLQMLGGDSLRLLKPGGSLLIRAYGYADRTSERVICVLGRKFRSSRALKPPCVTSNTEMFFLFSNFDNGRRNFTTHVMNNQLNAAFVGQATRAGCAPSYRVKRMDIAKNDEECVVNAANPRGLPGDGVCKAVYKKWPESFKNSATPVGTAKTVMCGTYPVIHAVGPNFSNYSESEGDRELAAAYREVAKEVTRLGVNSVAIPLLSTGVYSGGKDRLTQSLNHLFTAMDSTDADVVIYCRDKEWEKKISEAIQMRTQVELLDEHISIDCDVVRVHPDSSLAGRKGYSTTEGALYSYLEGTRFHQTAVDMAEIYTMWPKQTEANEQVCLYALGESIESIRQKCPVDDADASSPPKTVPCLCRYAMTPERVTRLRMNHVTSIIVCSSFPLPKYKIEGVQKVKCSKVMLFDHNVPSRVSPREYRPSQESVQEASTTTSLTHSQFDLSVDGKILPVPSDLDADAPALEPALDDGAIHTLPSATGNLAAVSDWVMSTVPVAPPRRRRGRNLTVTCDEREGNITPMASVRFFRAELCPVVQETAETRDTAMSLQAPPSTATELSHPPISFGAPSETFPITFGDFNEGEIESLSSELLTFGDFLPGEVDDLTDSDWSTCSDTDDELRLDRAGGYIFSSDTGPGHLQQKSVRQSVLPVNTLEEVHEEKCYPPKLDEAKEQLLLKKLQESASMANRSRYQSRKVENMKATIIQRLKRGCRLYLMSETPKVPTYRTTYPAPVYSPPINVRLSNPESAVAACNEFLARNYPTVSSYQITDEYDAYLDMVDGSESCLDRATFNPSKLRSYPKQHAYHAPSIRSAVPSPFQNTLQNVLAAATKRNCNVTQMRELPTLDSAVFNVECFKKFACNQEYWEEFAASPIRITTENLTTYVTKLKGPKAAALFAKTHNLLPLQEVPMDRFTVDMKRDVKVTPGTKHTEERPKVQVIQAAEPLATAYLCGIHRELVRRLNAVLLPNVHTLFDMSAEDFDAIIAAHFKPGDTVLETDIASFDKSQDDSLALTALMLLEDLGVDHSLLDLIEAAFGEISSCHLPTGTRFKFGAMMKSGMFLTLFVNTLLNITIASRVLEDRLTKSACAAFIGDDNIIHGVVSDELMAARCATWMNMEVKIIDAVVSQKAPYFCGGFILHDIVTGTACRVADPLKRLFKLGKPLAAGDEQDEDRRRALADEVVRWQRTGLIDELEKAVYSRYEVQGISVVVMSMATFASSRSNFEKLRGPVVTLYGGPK
Starred values were filed as active, the others as inactive; i = inactive; ? = inconclusive; [ ] = another dose, or the depositor's remark. On the % scale 0 is the no-effect control and ±100 the full control effect; potency means the concentration at half of the fitted maximal effect. An excerpt; rates above refer to the full screens.

> CCCCNc1ncc(-c2ccc(CN3CCOCC3)cn2)c(NC2CCC(O)CC2)n1 (centres undefined)
  nsP2pro inh: -3%[10 µM]

> O=C1CCCC2=C1C1(CCC1)N=C(Nc1nc3ccccc3o1)N2
  nsP2pro inh: i

> O=C(Cn1cccn1)N1CC[C@@H]2[C@@H](CCC(=O)N2CCc2cnc[nH]2)C1
  nsP2pro inh: 1%

> O=C1CCCC2=C1C(c1[nH]ncc1Cl)NC(=NCc1ccncc1)N2 (centres undefined)
  nsP2pro inh: -6%

> CC1(C)S[C@@H]2[C@H](NC(=O)[C@H](N)c3ccccc3)C(=O)N2[C@H]1C(=O)OCOC(=O)[C@@H]1N2C(=O)C[C@H]2S(=O)(=O)C1(C)C
  nsP2pro inh: -5%

> C[C@@H](NC(=O)C1CCCC1)c1onc(-c2cccnc2)c1C(=O)O
  nsP2pro inh: i

> N#Cc1c(-c2ccc([N+](=O)[O-])o2)no[n+]1[O-]
  nsP2pro inh: ?

> COc1ccc(-c2nnc3n2N=C(c2ccc(OC)c(OC)c2)CS3)c(OC)c1
  nsP2pro inh: -7%

> CCc1ccc(CNC(=O)c2ccc3nc(C(C)C)oc3c2)cc1
  nsP2pro inh: -15%

> CCCCCCCCCCCCCCCCCCCCCCCCCCCCO
  nsP2pro inh: 3%[0.199 µM]

> Cc1nn(CCO)cc1-c1c(-c2ccccc2)ncn1CC(=O)O
  nsP2pro inh: 2%

> CSc1ccc2c(c1)N(CCC1CCCCN1C)c1ccccc1S2 (centres undefined)
  nsP2pro inh: 43%[activator]

> CCc1ccc(NC(=O)C(=O)NCC(c2cccnc2)N2CCN(C)CC2)cc1 (centres undefined)
  nsP2pro inh: -9%

> COc1ccccc1-c1nn2c(=O)cc(CN3CCN(C(=O)/C=C/c4ccccc4)CC3)nc2s1
  nsP2pro inh: ?

> CC(C)N(C(=O)c1ccccc1-c1cc(NC2CC2)nc(N)n1)C(C)C
  nsP2pro inh: -12%

> COc1cccc(CNC(=O)C2(c3cccs3)CCOCC2)c1
  nsP2pro inh: -12%

> CC(=O)Nc1cc([As](=O)(O)O)ccc1O
  nsP2pro inh: -2%

> COCCCNC(=O)CCCn1c(=O)c2ccccc2n(CC(=O)Nc2ccc(C)cc2Cl)c1=O
  nsP2pro inh: -15%

> O=C1NC2(CCN(Cc3ccsc3)C2)COc2ccccc21 (centres undefined)
  nsP2pro inh: i

> CCN1CC2(CCN(Cc3nc(COC)no3)CC2)CC(c2ccccc2)C1=O (centres undefined)
  nsP2pro inh: 1%

> CN(Cc1ccccc1CN1CCCC1)C(=O)C1CC2(CCNCC2)CN1C (centres undefined)
  nsP2pro inh: 1%

> Cc1ccc(Cl)cc1-n1ncc2c(N3CCCCCC3)ncnc21
  nsP2pro inh: -29%

> Cc1cc(CN2C[C@@H](COCC3CC3)[C@H](c3ccccn3)C2)n(C)n1
  nsP2pro inh: -4%

> Cc1ccc(NC(=O)CC2CCN(S(C)(=O)=O)C2)cc1 (centres undefined)
  nsP2pro inh: 4%

> CSCc1noc(CNC(=O)c2ccc(-c3ccccc3Cl)o2)n1
  nsP2pro inh: 5%

> Cc1ccc(-n2c(=O)c3c4c(sc3n(CC(=O)c3ccc(Cl)cc3)c2=O)CCC4)cc1C
  nsP2pro inh: -11%

> C[N+](C)(C)CCOP(=O)([O-])OC[C@H](O)CO
  nsP2pro inh: -25%

> O=C(O)CCCc1c[nH]c2ccccc12
  nsP2pro inh: -5%

> Cc1ccc(S(=O)(=O)Nc2ccccc2Nc2nc(-c3ccccc3)cs2)cc1
  nsP2pro inh: 2%

> CS(=O)(=O)N(CC(=O)NCCSc1ccccc1)c1cc(C(F)(F)F)ccc1Cl
  nsP2pro inh: -14%

> O=C(O)c1ccnc2cc(C(OCCN3CCC(F)(F)CC3)c3ccccc3Cl)[nH]c12 (centres undefined)
  nsP2pro inh: 7%

> CC(NC(=O)c1ccc2c(c1)N(Cc1ccc(Cl)cc1)C(=O)c1ccccc1S2=O)c1ccccc1 (centres undefined)
  nsP2pro inh: -14%

> COC(=O)C1=CO[C@@H](O[C@@H]2O[C@H](CO)[C@@H](O)[C@H](O)[C@H]2O)[C@H]2[C@@H]1C=C[C@]21C=C([C@H](C)OC(=O)/C=C/c2ccc(O[C@@H]3O[C@H](CO)[C@@H](O)[C@H](O)[C@H]3O)cc2)C(=O)O1
  nsP2pro inh: ?

> CCCC12CN3CC(CCC)(CN(C1)C3c1c[nH]c3ccc(OC)cc13)C2=O (centres undefined)
  nsP2pro inh: 8%

> Cc1ccc(N2C(=O)CSC23C(=O)N(CC(=O)NCc2ccccc2)c2ccccc23)cc1C (centres undefined)
  nsP2pro inh: -8%

> Cc1nn(-c2ccccc2)c(OC(=O)C(C)C)c1Sc1ccccc1
  nsP2pro inh: ?

> COC(=N)c1nc2ccc3ncnc(Nc4ccc(F)cc4Br)c3c2s1
  nsP2pro inh: 145%[activator]

> CC(C)Cc1noc(CN(C)C(=O)CC2C(=O)NCCN2CC(C)C)n1 (centres undefined)
  nsP2pro inh: -13%

> O=C(NCC1CN(C(=O)c2cnccn2)CC12CCOCC2)N1CCCC1 (centres undefined)
  nsP2pro inh: -1%

> CCN1CCCC2(CCN(C(=O)CCc3n[nH]c(C)c3C)C2)C1=O (centres undefined)
  nsP2pro inh: -5%

> O=C(O)c1cccnc1C(=O)O
  nsP2pro inh: -9%

> Cc1noc(C)c1S(=O)(=O)N1CC(C(=O)NC2CCCCC2)C2(CCOCC2)C1 (centres undefined)
  nsP2pro inh: -3%

> O=C(CN1C(=O)CC(c2ccc(F)cc2)=Nc2ccccc21)NCc1ccccc1Cl
  nsP2pro inh: -16%

> O=C(NC[C@H]1OC[C@@H](N(Cc2cnc[nH]2)Cc2cnc[nH]2)[C@@H]1O)C1CCCC1
  nsP2pro inh: i

> O=C(NCc1ccc(F)cc1)c1ccc(NC(=O)N2CC3CCCN3c3ccccc32)cc1 (centres undefined)
  nsP2pro inh: -23%

> c1ccc(CNc2nc(NCc3ccccc3)c3ccccc3n2)cc1
  nsP2pro inh: 16%

> CC(C)CNC(=O)/C=C/CCCCc1ccc2c(c1)OCO2
  nsP2pro inh: -7%

> Cc1cnc(C2CCC2)n1CCC1CCN(C(=O)c2ccc3ccccc3n2)CC1
  nsP2pro inh: i

> Nc1ncnc2c1c(-c1ccc(Oc3ccccc3)cc1)nn2[C@@H]1CCCNC1
  nsP2pro inh: 37%[activator]

> CCN(c1cccc(C)c1)S(=O)(=O)c1c(C)nc2sc(C)cn2c1=O
  nsP2pro inh: -26%

> CC(=O)OC[C@]12[C@H](OC(C)=O)C(=O)[C@@H]3[C@@H](OC(C)=O)[C@@]14O[C@@]3(C)COC(=O)c1cccnc1[C@@H](C)[C@H](C)C(=O)O[C@@H]([C@H](OC(C)=O)[C@@H]2OC(C)=O)[C@]4(C)O
  nsP2pro inh: ?

> CC[C@H]1CN(S(C)(=O)=O)CC[C@H]1CC(=O)NCc1ccco1
  nsP2pro inh: ?

> CN1CCN(C(=O)Cc2c[nH]c3ncc(-c4ccnn4C)cc23)CC1
  nsP2pro inh: -3%[39.2 µM]

> CC1=C(C(=O)Nc2cccc(C(F)(F)F)c2)C2(CCCCCC2)OC1=O
  nsP2pro inh: -21%

> Cc1ccc(C2Nc3cccc4cccc(c34)N2)cc1
  nsP2pro inh: i

> CCCC(=O)N1Cc2ccccc2CC2(CCCN(Cc3ccccn3)C2)C1 (centres undefined)
  nsP2pro inh: i

> C=C1CC/C=C(/CO)C(=O)C[C@@H]2[C@@H]1C[C@@]2(C)COC(C)=O
  nsP2pro inh: 22%

> CC(=O)c1ccc(C(=O)Nc2nnc(-c3ccco3)o2)cc1
  nsP2pro inh: -7%

> COc1ccccc1CNC(=O)c1cc2sccc2n1Cc1ccc(F)cc1
  nsP2pro inh: -8%

> CC(C)=C1CC2[C@](C)(CC[C@@H](OC(=O)C3(C)OC3C)[C@@]2(C)O)CC1=O (some centres undefined)
  nsP2pro inh: -5%

> Fc1cccc(CN2CCO[C@@H](COc3ccccn3)[C@@H]2c2ccccc2)c1
  nsP2pro inh: 3%

> CCOC(=O)c1c(NC(=O)c2nc(SCC)ncc2Cl)sc2c1CCCC2
  nsP2pro inh: -15%

> CNCCC=C1c2ccccc2CCc2ccccc21
  nsP2pro inh: 0%

> CSCC[C@H](NC(=O)[C@H](CO)NC(=O)[C@H](CCC(=O)O)NC(C)=O)C(=O)N[C@H](C=O)CC(=O)O
  nsP2pro inh: 6%[5.1 µM]

> COc1ccc(Nc2nnc(-c3ccc(C)c(S(=O)(=O)NCc4nc5ccccc5[nH]4)c3)c3ccccc23)cc1
  nsP2pro inh: -12%

> Nc1c(C(=O)Nc2cccc(Cl)c2)sc2nc3c(cc12)CN(Cc1ccccc1)CC3
  nsP2pro inh: -10%

> COc1ccc(Cn2c(CCC(=O)Nc3cc(OC)c(OC)c(OC)c3)nc3cccnc32)cc1
  nsP2pro inh: -16%

> CC(C)CNC(=O)C1CC(c2ccccc2F)=NO1 (centres undefined)
  nsP2pro inh: -5%

> COCC(=O)NCCc1nc2ccccc2n1CCOc1ccc(C)cc1
  nsP2pro inh: -5%

> CC(C)(C)C1CCc2c(sc(NC(=O)Cn3nnc(-c4ccccc4F)n3)c2C#N)C1 (centres undefined)
  nsP2pro inh: -17%

> O=C(N[C@@H]1CN(C(=O)c2nccc3ccccc23)C[C@H]1CO)c1ccccc1
  nsP2pro inh: -3%

> Cc1cn([C@H]2C[C@H](N[S+](=O)([O-])Cc3ccc(Cl)cc3)[C@@H](CO)O2)c(=O)[nH]c1=O
  nsP2pro inh: i

> Cc1ccc(CN2CCc3nc(N4CCN(C)CC4)ncc3C2)s1
  nsP2pro inh: 33%

> CC(C)S(=O)(=O)c1ncc(CN(C)Cc2cnn(C)c2)n1CCc1ccccc1
  nsP2pro inh: 0%

> Cn1cc(CN2CCOC[C@H]2c2ncc(C(C)(C)C)[nH]2)c2ccccc21
  nsP2pro inh: i

> NC(=O)C1CCN(c2nccc(-c3ccc(Br)cc3)n2)CC1
  nsP2pro inh: i

> COc1ccc([C@H]2C[C@@H](O)[C@@H](O)[C@@H]2N2CCCCC2)cc1
  nsP2pro inh: -5%[39.2 µM]

> CCn1c(=O)c2cc(C(=O)NCCc3cccc(C)c3)sc2c2ccccc21
  nsP2pro inh: -3%

> O=C1CCC(=O)N(O)CCCCCNC(=O)CCC(=O)N(O)CCOCCNC(=O)CCC(=O)N(O)CCCCCN1
  nsP2pro inh: 4%[10 µM]

> CC1=C(/C=C/C(C)=C/C=C/C(C)=C/C=C/C=C(C)/C=C/C=C(C)/C=C/C2=C(C)CCCC2(C)C)C(C)(C)CCC1
  nsP2pro inh: ?

> COCCN1CCC(C(=O)N2CCn3nc(Cc4ccccc4)cc3C2)C1 (centres undefined)
  nsP2pro inh: i

> COc1ccc(CCNc2nc(-c3ccc(C)cc3)cc(C(F)F)n2)cc1OC
  nsP2pro inh: -26%

> COC(=O)c1ccc(NC(=O)C(=O)NCC(c2cccnc2)N2CCN(c3ccccc3)CC2)cc1 (centres undefined)
  nsP2pro inh: -14%

> Cc1c(C(=O)Nc2ccccc2Cl)oc2ccc(S(=O)(=O)N3CCCCC3)cc12
  nsP2pro inh: -21%

> CC1(C)NC(=O)N(c2ccc([N+](=O)[O-])c(C(F)(F)F)c2)C1=O
  nsP2pro inh: -2%

> CCc1ccc(NC(=O)Cn2nnc(C(=O)NCc3ccco3)c2N)cc1
  nsP2pro inh: -20%

> COc1cccc(-c2ccc(CN3CCCC(N[S+](=O)([O-])c4ccc(C)cc4)C3)cc2)c1 (centres undefined)
  nsP2pro inh: 4%

> C[C@@H](N)C(=O)N1CCC2(CC1)CC(=O)N(Cc1cc(F)cc(F)c1)C2
  nsP2pro inh: 2%

> N#Cc1cccc(-c2ccnc(N[C@H]3CO[C@H]4[C@@H]3OC[C@@H]4NC(=O)c3cccs3)n2)c1
  nsP2pro inh: -16%[39.2 µM]

> O=C1OCCC1CCC(=O)N1CCc2c(nc(-c3ccccc3)[nH]c2=O)C1 (centres undefined)
  nsP2pro inh: i

> COc1ccc(NC(=O)CCC2CCCN(C(=O)c3ccccc3SC)C2)cc1Cl (centres undefined)
  nsP2pro inh: -5%

> CC(C)c1cc(C(=O)N[C@@H]2COCC[C@@H]2Oc2cccc(F)c2)nc(N)n1
  nsP2pro inh: i

Compounds from the list above with a Cl atom:
> O=C1CCCC2=C1C(c1[nH]ncc1Cl)NC(=NCc1ccncc1)N2 (centres undefined)
  nsP2pro inh: -6%

> COCCCNC(=O)CCCn1c(=O)c2ccccc2n(CC(=O)Nc2ccc(C)cc2Cl)c1=O
  nsP2pro inh: -15%

> Cc1ccc(Cl)cc1-n1ncc2c(N3CCCCCC3)ncnc21
  nsP2pro inh: -29%

> CSCc1noc(CNC(=O)c2ccc(-c3ccccc3Cl)o2)n1
  nsP2pro inh: 5%

> Cc1ccc(-n2c(=O)c3c4c(sc3n(CC(=O)c3ccc(Cl)cc3)c2=O)CCC4)cc1C
  nsP2pro inh: -11%

> CS(=O)(=O)N(CC(=O)NCCSc1ccccc1)c1cc(C(F)(F)F)ccc1Cl
  nsP2pro inh: -14%

> O=C(O)c1ccnc2cc(C(OCCN3CCC(F)(F)CC3)c3ccccc3Cl)[nH]c12 (centres undefined)
  nsP2pro inh: 7%

> CC(NC(=O)c1ccc2c(c1)N(Cc1ccc(Cl)cc1)C(=O)c1ccccc1S2=O)c1ccccc1 (centres undefined)
  nsP2pro inh: -14%

> O=C(CN1C(=O)CC(c2ccc(F)cc2)=Nc2ccccc21)NCc1ccccc1Cl
  nsP2pro inh: -16%

> CCOC(=O)c1c(NC(=O)c2nc(SCC)ncc2Cl)sc2c1CCCC2
  nsP2pro inh: -15%

> Nc1c(C(=O)Nc2cccc(Cl)c2)sc2nc3c(cc12)CN(Cc1ccccc1)CC3
  nsP2pro inh: -10%

> Cc1cn([C@H]2C[C@H](N[S+](=O)([O-])Cc3ccc(Cl)cc3)[C@@H](CO)O2)c(=O)[nH]c1=O
  nsP2pro inh: i

> Cc1c(C(=O)Nc2ccccc2Cl)oc2ccc(S(=O)(=O)N3CCCCC3)cc12
  nsP2pro inh: -21%

> COc1ccc(NC(=O)CCC2CCCN(C(=O)c3ccccc3SC)C2)cc1Cl (centres undefined)
  nsP2pro inh: -5%
